Compound activity from PubChem.
VDR inh: vitamin D3 receptor (human) inhibition | P11473 | VDR-SRC2-3 peptide fluorescence polarization, 2 h | Potency, µM, without a hit: max response, negative = inhibition, most hits filed as inhibitors | 0.93% of 400,000 active; active means well fitted inhibition curve with a large enough effect; inconclusive means small, poorly fitted or top-dose-only effect, or another doubt; inactive means no such curve, though single readings can be large or run the other way; further: series mostly up to about 120 µM
Target sequence (P11473 whole entry, looked up): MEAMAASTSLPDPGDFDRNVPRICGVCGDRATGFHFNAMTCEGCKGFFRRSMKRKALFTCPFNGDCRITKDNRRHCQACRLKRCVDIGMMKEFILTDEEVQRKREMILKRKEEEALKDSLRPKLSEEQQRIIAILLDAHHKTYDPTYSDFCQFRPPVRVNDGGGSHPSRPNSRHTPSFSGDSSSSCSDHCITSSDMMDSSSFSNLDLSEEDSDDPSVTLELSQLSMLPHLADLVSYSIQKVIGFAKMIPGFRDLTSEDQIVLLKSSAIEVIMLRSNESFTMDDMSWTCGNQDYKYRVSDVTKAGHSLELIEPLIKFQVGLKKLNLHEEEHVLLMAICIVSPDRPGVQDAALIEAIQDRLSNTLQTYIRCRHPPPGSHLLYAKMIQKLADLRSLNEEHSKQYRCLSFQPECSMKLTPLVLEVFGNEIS
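Signal is fluorescence polarization, reporting how far test compounds block the interaction of VDR with the SRC2-3 coregulator peptide after a 2 h room-temperature incubation.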
Numbers without * were called inactive; ? = inconclusive. On the % scale 0 is the no-effect control and ±100 the full control effect; potency means the concentration at half of the fitted maximal effect. This is a subset; rates above refer to the full screens.

SMILES	VDR inh
O=C(Nc1c(Cl)ccc2nsnc12)c1ccc([N+](=O)[O-])o1	-5.9%
CC1C(=O)C(C)C(c2ccco2)NC1c1ccco1 (stereo unspecified)	9.8%
COc1ccc(NC(=O)CSc2nc(=O)n(CCN(C)C)c3c2CCCC3)cc1OC	-5.9%
Oc1ccc(-c2csc(-c3cccnc3)n2)cc1O	26.3%
CCOC(=O)c1sc(N(Cc2ccccc2)C(=O)COC(=O)c2cnccn2)nc1C	-3.7%
CC(/C=N/n1c(-c2ccco2)n[nH]c1=S)=C\c1ccccc1	-29.7%
O=C1c2ccccc2NC(c2ccc(F)cc2)N1Cc1ccccc1 (stereo unspecified)	-13.8%
COc1ncc2nc(CCc3ccccc3)c(=O)n(Cc3ccc(F)cc3)c2n1	-17.5%
O=C(O)c1ccc(S(=O)(=O)N(Cc2ccc(F)cc2)C2CCCCC2)cc1	-6.6%
CCC(C)NC(=S)N(CCc1ccccc1)Cc1cc2cc(OC)c(OC)cc2[nH]c1=O (stereo unspecified)	-12.0%
CC(C)(C)C1CCc2[nH]nc(C(=O)O)c2C1 (stereo unspecified)	1.2%
COc1cc(-c2nc(-c3ccc(NC(=O)c4ccc(Br)o4)cc3)no2)cc(OC)c1OC	4.9%
Cc1c(C(=O)OC2CCCC2C)[nH]c2c1C(=O)CCC2 (stereo unspecified)	15.6%
O=C(NNC(=O)c1cccc(C(F)(F)F)c1)c1ccc(-n2cnnn2)cc1	12.7%
Cc1c(Br)c([N+](=O)[O-])nn1C(C)C(=O)NCc1cccnc1 (stereo unspecified)	7.6%
Cc1ccc2c(CC(=O)N(Cc3ccc(Cl)cc3)Cc3ccco3)coc2c1	6.5%
CCCC(C(=O)NCc1ccco1)N(C(=O)CNS(=O)(=O)c1ccccc1)C1CCCC1 (stereo unspecified)	9.6%
CN(C)C(=O)COc1ccc(S(=O)(=O)c2ccc(OCC(=O)N(C)C)cc2)cc1	2.3%
CCCCCC(=O)Nc1ccccc1N1CCN(c2ccccc2)CC1	-8.8%
CS(=O)(=O)NCc1nnc(SCC(=O)NC2CCCCC2)n1-c1ccc(F)cc1	18.2%
CC(C)n1c(S(=O)(=O)O)nc2ccccc21	5.5%
Cc1cccc(OC2CCN(Cc3c(C(=O)N4CCCC4)nc4ccccn34)CC2)c1	-11.8%
CCOc1ccc(CN2CCc3nc(Nc4ccc(OC)cc4OC)ncc3C2)cc1	17.4%
O=C(Nc1ccc(F)cc1F)c1c2c(nc3ccccc13)C(=O)N(C1CCCCC1)C2	-4.2%
O=C(Nc1nc2c(F)cc(F)cc2s1)C1COc2ccccc2O1 (stereo unspecified)	-18.1%
O=C(Nc1cccc(-c2nn[nH]n2)c1)c1ccc(Br)s1	1.2%
Nc1nnc(SCC(=O)N2CCc3ccccc3C2)s1	-5.0%
CCN(CC)c1ccc(C2C(C(=O)OCCOC(C)C)=C(C)NC3=C2C(=O)CCC3)cc1 (stereo unspecified)	1.4%
Cc1cc(S(N)(=O)=O)c(N)c(S(N)(=O)=O)c1	1.3%
CN(C)S(=O)(=O)c1ccc(NC(=O)CN2CCCc3ccccc32)cc1	-0.8%
CCOC(=O)CSc1nc2nc(C)cc(C)n2n1	-15.9%
Cn1c(=O)c2nc(SCCO)n(C)c2n(C)c1=O	-0.7%
CS(=O)(=O)c1ccc(-c2csc(-c3cccnc3)n2)cc1	6.9%
COc1ccc(CC(=O)N2CCN(S(=O)(=O)c3cc(Cl)ccc3Cl)CC2)cc1	-9.8%
N#CCCn1cc(/C=N/O)c(-c2cccc([N+](=O)[O-])c2)n1	1.3%
Cc1ccc(NC(=O)c2ccco2)c(NC(=O)CN2C(=O)c3ccccc3C2=O)c1	-18.9%
C[C@@H](O)CCC[C@H](O)/C=C/[C@H]1[C@H](O)CC(=O)[C@@H]1C/C=C\CCCC(=O)O	-7.8%
C[C@]12C=CC(=O)C=C1CC[C@@H]1[C@@H]2[C@@H](O)C[C@@]2(C)[C@H]1CC[C@]2(O)C(=O)COC(=O)CCC(=O)NCCc1ccc(O)cc1	-23.1%
O=C(COC(=O)c1ncc(Cl)c(Cl)c1Cl)Nc1ccc(Cl)cn1	-7.9%
Cc1ccc(NS(=O)(=O)c2sc3ccc(Cl)cc3c2C)cc1	0.9%
O=C(O)c1ccc(NS(=O)(=O)c2ccc(Cl)cc2)cc1	-11.1%
Cc1cc(C(=O)Cn2cc(C(F)(F)F)ccc2=O)c(C)n1CC1CCCO1 (stereo unspecified)	-4.8%
O=C(c1cccc(F)c1)N1CCC(c2nc3ccccc3s2)CC1	8.0%
CCN1CCCC1CNC1=NCCCCC1 (stereo unspecified)	0.6%
O=C(CNC(=O)c1nc[nH]c1C(=O)N1CCNCC1)OCc1ccccc1	-2.8%
O=C1c2cccnc2C(=O)N1CO	5.9%
CCc1nnc2n1N=C(c1ccc(Br)cc1)CS2	3.2%
O=C1C(=O)N(CC2COc3ccccc3O2)c2ccccc21 (stereo unspecified)	?
O=C(OCc1c(F)cccc1Cl)c1cccnc1Cl	14.3%
COc1cc2nc(-c3cccs3)oc(=O)c2cc1OC	-6.6%
Next part
SMILES	VDR inh
Cc1ccc(-c2nn(-c3ccccc3)c3[nH]c(=O)c(CNCc4ccccc4)cc23)cc1	-0.3%
c1ccc(CCNc2ncnc3c2cnn3-c2ccccc2)cc1	0.0%
CC(C)Cn1c(=O)c2ccccc2n2c(-c3ccc(Br)cc3)nnc12	8.2%
Oc1ccccc1/C=N/n1c(-c2ccccc2)n[nH]c1=S	-23.7%
C#CCOCCOCCOCCNc1nc(N2CCN(C(=O)C([C@@H](C)CC)n3cc(C(N)COC(=O)C(F)(F)F)nn3)CC2)nc(N2CCN(C(=O)[C@H](CCC(=O)O)n3cc(C(N)CC(C)C)nn3)CC2)n1 (stereo partly specified)	-0.8%
CCN(CC(=O)NCc1ccc(Cl)cc1)C(=O)NCc1ccc(Cl)cc1	?
CCOC(=O)CN1C(=O)CC(c2ccccc2)C1=O (stereo unspecified)	1.6%
COc1cc2cc(CNc3ccc(C)cc3)c(=O)n(CC(=O)Nc3ccc(F)cc3F)c2cc1OC	-0.5%
CC(=O)Nc1ccc(-c2cc(-c3ccc(NC(C)=O)cc3)nc(-c3ccccc3)n2)cc1	15.8%
Oc1c(Br)cc(/C=N/NC(=S)NCc2ccco2)cc1Br	-16.9%
CCCCCCCc1c(C)nc(N2CCOCC2)[nH]c1=O	0.7%
Cc1nn2c3c(cnc2c1-c1ccccc1)C(=O)CC(c1ccco1)C3 (stereo unspecified)	13.0%
O=C(Nc1nc(-c2ccccc2)c(-c2ccccc2)o1)c1ccc(F)cc1	-9.4%
COc1ccc(C2CC(c3ccc(F)cc3)Nc3nc(N)nn32)cc1OC (stereo unspecified)	-9.8%
CS(=O)(=O)N1CCN(c2ccccc2NC(=S)NC(=O)c2ccccc2[N+](=O)[O-])CC1	8.5%
CC(=O)c1ccc(N2CCN(C(=O)Cc3n[nH]c(=O)c4ccccc34)CC2)cc1	-10.5%
O=C(OC1CCOC1=O)c1cc(-c2cccc(Br)c2)nc2ccccc12 (stereo unspecified)	-13.3%
COc1cccc(-c2nc(CCl)cs2)c1OC	-12.0%
O=C(Nc1cnn(C23CC4CC(CC(C4)C2)C3)c1)c1cnn2cccnc12	13.6%
C[C@@]12CCC=C[C@H]1[C@H](c1ccoc1)N(Cc1ccccc1)C2=O	-19.6%
Cc1cc(C)nc(N2CCN(C(=O)CCC(=O)Nc3nnc(C(C)C)s3)CC2)n1	7.8%
COc1ccc(CCNC(=O)C(=O)NCC(c2ccco2)S(=O)(=O)c2cccs2)cc1 (stereo unspecified)	12.2%
S=C1NC[C@H](Cc2ccccc2)N1CCCCC1CCCCC1	-7.5%
O=C(NC(=S)Nc1ccccc1O)c1cncc(Br)c1	-2.6%
CC(=O)Nc1c2c(nn1-c1ccc(Cl)cc1)CSC2	-2.8%
O=C(NCc1cccc(C(F)(F)F)c1)C1CC(c2ccccc2[N+](=O)[O-])=NO1 (stereo unspecified)	0.2%
COC(=O)Nc1ccc(Oc2ccccc2)cc1	2.3%
CN(CC(=O)NCCc1ccc(S(N)(=O)=O)cc1)S(=O)(=O)c1ccc(Br)s1	3.6%
CC1=C(C#N)C(c2ccc(O)cc2)C2=C(CC(C)(C)CC2=O)N1 (stereo unspecified)	0.9%
CC1CC(C)CN(CCCNC(=O)C2CCN(c3nnc(-n4cccc4)s3)CC2)C1 (stereo unspecified)	-10.1%
O=[N+]([O-])c1ccccc1C=NNc1ccccc1	-12.7%
N#Cc1cccc(-c2nccc(NCc3cccs3)n2)c1	?
CCN(CC)c1ccc(/C=N/NC(=O)CNC(=O)/C=C/c2ccco2)cc1	-6.0%
O=c1[nH]c(-c2ccco2)nc2sc3c(c12)CCCC3	-0.5%
CCC(=O)Nc1cccc(-c2nnc(SCC(=O)NCc3ccco3)n2C)c1	-18.6%
O=C(NCCS(=O)(=O)N1CCCCC1)c1ccc2c(c1)OCO2	-5.4%
Cc1ccc(CCNC(=O)C(C)n2nc(C)c3c(C)n(-c4ccccc4)nc3c2=O)cc1 (stereo unspecified)	-13.9%
Cc1ccc(O)c(C(CC(=O)NCC2(c3ccccc3)CCCC2)c2ccccc2)c1 (stereo unspecified)	-5.0%
COc1ccc(Oc2cn[nH]c2-c2ccc(OCC(=O)NN)cc2O)cc1	-6.5%
CCN(C[C@H]1N[C@@](C)(C(=O)OC)[C@H]2C(=O)N(C)C(=O)[C@@H]12)S(=O)(=O)c1ccc(OC(F)(F)F)cc1	-12.9%

Continued (7 carried over from the part before).
SMILES	VDR inh
O=c1[nH]c(-c2ccco2)nc2sc3c(c12)CCCC3	-0.5%
CCC(=O)Nc1cccc(-c2nnc(SCC(=O)NCc3ccco3)n2C)c1	-18.6%
O=C(NCCS(=O)(=O)N1CCCCC1)c1ccc2c(c1)OCO2	-5.4%
Cc1ccc(CCNC(=O)C(C)n2nc(C)c3c(C)n(-c4ccccc4)nc3c2=O)cc1 (stereo unspecified)	-13.9%
Cc1ccc(O)c(C(CC(=O)NCC2(c3ccccc3)CCCC2)c2ccccc2)c1 (stereo unspecified)	-5.0%
COc1ccc(Oc2cn[nH]c2-c2ccc(OCC(=O)NN)cc2O)cc1	-6.5%
CCN(C[C@H]1N[C@@](C)(C(=O)OC)[C@H]2C(=O)N(C)C(=O)[C@@H]12)S(=O)(=O)c1ccc(OC(F)(F)F)cc1	-12.9%
COc1ccccc1NC(=O)C(C)OC(=O)c1cccc(-n2cnnn2)c1 (stereo unspecified)	7.2%
COc1cc([C@@H]2[C@H]3CN(C)CC=C3C(C#N)=C(N)C2(C#N)C#N)cc2c1OCO2	?
Cc1onc(-c2c(F)cccc2Cl)c1C(=O)O/N=C(\N)c1ccc([N+](=O)[O-])o1	-4.1%
Cc1ccc(C)c(CNC(=O)c2cnc3sc(N4CCCC4)nn3c2=O)c1	-1.1%
CN(c1ccc(OCC(=O)N2CCOCC2)cc1)S(=O)(=O)c1ccc(F)cc1	-11.0%
CC(C)[C@H](NC(=O)N1c2ccccc2NC(=O)[C@@H]1C(C)C)C(=O)N[C@H](Cc1ccccc1)C(=O)O	2.7%
CCOc1cccc(/C=N/Nc2nc(N3CCCC3)nc(N3CCCC3)n2)c1O	?
Cc1cc(C(=O)N/N=C/c2ccc([N+](=O)[O-])cc2)c(C)o1	5.2%
S=C(Nc1ccc(Br)cc1Cl)NN1CCOCC1	14.7%
CC(Oc1ccccc1Cl)C(=O)Nc1ccc(S(=O)(=O)N2CCCC2)cc1 (stereo unspecified)	-6.4%
CCC1CCCCN1CCCNC(=O)Cn1ncc2c(C)n(Cc3ccccc3Cl)c(C)c2c1=O (stereo unspecified)	-10.8%
COc1ccc(CNCc2c(C(=O)O)c(C)n(Cc3ccc(Cl)cc3)c2C)c(OC)c1	6.5%
COc1ccccc1COCC(O)CN1CCCCC1CO (stereo unspecified)	11.6%
CCOc1ccc(S(=O)(=O)N2CCN(C)CC2)c(C)c1C	8.7%
O=C(CCCC(=O)N1CCN(c2ccc([N+](=O)[O-])cc2)CC1)c1ccccc1	-1.1%
O=C(Nn1cnc2ccccc2c1=O)c1ccccc1Cl	1.6%
CCS(=O)(=O)c1nc(S(=O)(=O)c2ccc(Cl)cc2)c(NCCCN2CCCC2=O)s1	-9.8%
Cc1ccc(C)c(NC(=O)CSc2nnc(-c3ccccc3C)o2)c1	-3.8%
COCCCN1C(=O)C(=O)/C(=C(/O)c2ccc(OC)cc2)C12C(=O)N(C)c1ccccc12 (stereo unspecified)	?
O=S(=O)(Nc1nc2ccccc2nc1Cl)c1ccc(Br)cc1	-6.8%

Reprinted at random: two records from the list
SMILES	VDR inh
Oc1ccccc1/C=N/n1c(-c2ccccc2)n[nH]c1=S	-23.7%
O=S(=O)(Nc1nc2ccccc2nc1Cl)c1ccc(Br)cc1	-6.8%

Another view of part of the listing above.
SMILES | VDR inh
CCC1CCCCN1CCCNC(=O)Cn1ncc2c(C)n(Cc3ccccc3Cl)c(C)c2c1=O (stereo unspecified) | -10.8%
COc1ccc(CNCc2c(C(=O)O)c(C)n(Cc3ccc(Cl)cc3)c2C)c(OC)c1 | 6.5%
COc1ccccc1COCC(O)CN1CCCCC1CO (stereo unspecified) | 11.6%
CCOc1ccc(S(=O)(=O)N2CCN(C)CC2)c(C)c1C | 8.7%
O=C(CCCC(=O)N1CCN(c2ccc([N+](=O)[O-])cc2)CC1)c1ccccc1 | -1.1%

(listing goes on)
SMILES	VDR inh
CC1SC(C)C(=O)N(CC(=O)Nc2ccc3c(c2)OCO3)C1=O (stereo unspecified)	-4.5%
CCC(=O)N1CCCc2cc(S(=O)(=O)Nc3ccc(C)c(C)c3)ccc21	0.9%
Cc1cc(=O)oc2cc(OCc3ccc(C(=O)N4CCN(c5ccccc5)CC4)cc3)ccc12	15.4%
Cc1cccc(NC(=O)CSc2nnc(CSc3nc(C)cc(C)n3)o2)c1	-14.0%
COc1ccc(-c2coc3cc(O)ccc3c2=O)c(O)c1O	50.1µM*
CC(C)OCCCn1c(=NC(=O)c2cccs2)c(C#N)cc2c(=O)n3ccccc3nc21	15.5%
